BJeLR lethal – MLPCN primary cell-based screen for lethality selective to Ras in HRASV12 cells | BJeLR (HRASV12) viability, CellTiter-Glo ATP luminescence, 48 h; reference of the scale not given here | inhibition, % (test concentration not listed) | 300,000 compounds, 0.17% hits | AID 1554, 2009;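 active = replicate mean above 50%; inconclusive = above 50% but judged a plate artefact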;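 also: 50 nL library stock added to about 25 µL; numbers are from one replicate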
RN4220 kill – growth inhibition of S. aureus RN4220, primary screen, OD600; 16 h; inhibition, % (test concentration not listed); 330,000 compounds, 0.33% hits; AID 1259311, 2017;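 active = z-score of -3 or lower and OD600 up to 0.18 on both plates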;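 also: plate controls were untreated cells for no effect and reference antibiotic for full effect; stock transfer was 100 nL into about 80 µL; one replicate is shown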
Bead autofluor – counter-screen for toxin protease inhibitors: compound fluorescence; compound autofluorescence counterscreen, microsphere flow cytometry; active compounds read high; fluorescence intensity (no concentration beside the values); 360,000 compounds, 3.1% hits; AID 624483;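 active = at least 3 SD above the mean of all compounds, about 16000 in these data; inconclusive = too few beads counted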;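 also: 100 nL of 1 mM stock went into each well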
PrP 5UTR inh – inhibition of PrP 5' UTR reporter expression. 340,000 compounds, 0.35% hits. inhibition, % (no concentration beside the values). cell-based PrP 5' UTR mRNA reporter, plate reader. AID 488862, 2010;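 active = every replicate at 50% or more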;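 also: 0 = median of the neutral control wells; tested in H4 reporter cells; numbers are from one replicate; inactives centre near -14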
Sa ugtP lethal – growth inhibition of ugtP-null S. aureus, primary screen, RN4220 ugtP deletion, OD600; 330,000 compounds, 0.54% hits; growth inhibition, % (no concentration beside the values); 16 h; some inactives read as strong as hits;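 active = z-score under -3 and OD600 up to 0.15 on both plates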;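 also: plate controls were untreated wells for no effect and antibiotic for full effect; wells of about 80 µL received 100 nL stock; the first replicate is given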
Mtb hypoxia inh – PubChem AID 1159583 | M. tuberculosis hypoxia-regulated fluorescent reporter, fluorescence | fluorescence inhibition, % (concentration not given with the values) | 300,000 compounds, 0.1% hits;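 active = 35 to 45% if threefold the growth effect, above 45% if 1.5-fold the growth effect; inactive = the rest, general growth blockers included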;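 also: wells of about 50 µL received 100 nL stock; 0% = vehicle wells and 100% = reference inhibitor wells; whole bacteria with a GFP reporter of the hypoxia response; strong numbers were not always called active; many hits fall short of the cut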
Mtb hypoxia inh growth – also measured in Mtb hypoxia inh; calls as there; growth inhibition, %; measured here: M. tuberculosis growth (absorbance);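 0% = vehicle and 100% = reference antibiotic; read after six days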
An asterisk follows results filed as active; ? = inconclusive; · = not tested or not shown; & = joins results of further samples.

Order of values: BJeLR lethal	RN4220 kill	Bead autofluor	PrP 5UTR inh	Sa ugtP lethal	Mtb hypoxia inh	Mtb hypoxia inh growth
1. COc1ccc(C(=O)Nc2nnc(C)s2)cc1S(=O)(=O)N1CCOCC1
  ·	-1.8	6041	-1	-6	-5	13
2. O=C(O)CCN1C(=O)/C(=C/c2cn(-c3ccccc3)nc2-c2cccs2)SC1=S
  ·	38	5027	-34	93*	7	10
3. O=c1c(CN2CCN(c3ccccn3)CC2)coc2ccccc12
  -5	-1.2	2023	-13	5	1	12
4. CCN1C(=O)C(NC(C)=O)c2cc(Br)ccc21 (configuration not stated)
  -6	3.0	5459	-15	-5	·	·
5. O=C(COc1cccc(OC(F)F)c1)Nc1ccc(SC(F)F)cc1
  0	-13	2611	-37	-11	7	-4
6. Cc1ccc(NC(=O)c2ccc3c(c2)[nH]c(=O)n3C(C)C)cc1
  7	13	3616	-10	-3	-5	7
7. CCCN(CCC)C(=O)C1CCC(CNS(=O)(=O)c2cccc3nsnc23)CC1 (configuration not stated)
  3	-4.5	5728	-6	-3	-6	3
8. Cc1nn(CC(=O)NC(C)c2ccccc2)c(=O)c2ccccc12 (configuration not stated)
  2	5.8	6023	-25	0	3	10
9. Nc1nc(SCc2ccccc2)c2ncn(Cc3ccccc3)c2n1
  ·	0.7	3469	-28	-7	9	8
10. O=C(N1CCOCC1)N1CCC(n2nnc3ccccc32)CC1
  -13	1.1	9657	-20	0	5	9
11. CCOC(=O)C1=C(C)NC(=S)NC1c1ccc(-c2cccc(Cl)c2C)o1 (configuration not stated)
  -17	-6.5	3165	-44	-20	3	6
12. Cc1ccc(-c2nc3ccccc3s2)cc1NC(=S)NC(=O)/C=C/c1ccco1
  3	-0.7	2591	-38	-10	·	·
13. COc1ccc(CC(=O)Nc2nnc(C(C)(C)C)s2)cc1OC
  6	0.6	2271	0	10	7	0
14. CCOC(=O)C1CCCN(c2c(NCC3CCCN3CC)c(=O)c2=O)C1 (configuration not stated)
  -2	3.0	4200	-14	3	13	7
15. CCCn1nnc(NC(=O)/C=C/c2cc(Br)ccc2OC)n1
  -10	-5.3	4264	-20	5	19	12
16. CCN1CCN(S(=O)(=O)c2cccc([N+](=O)[O-])c2)CC1
  -3	1.0	3152	-20	-8	-5	2
17. Cc1cc(C(=O)COC(=O)c2cccc(O)c2)c(C)n1C1CC1
  ·	3.1	2783	21	5	4	3
18. CC(C)(C)n1nc2c(c1NC(=O)COc1ccc3ccccc3c1)CS(=O)(=O)C2
  3	1.2	8273	-19	13	7	1
19. O=C(Cc1cccs1)Nc1ccc(F)cc1F
  -1	2.8	3373	-25	-1	-1	19
20. Cc1cc(C(=O)NNC(=O)CN2C(=O)NC3(CCCCC3)C2=O)c(C)o1
  ·	2.3	5509	1	1	1	12
21. CC(OC(=O)CC1CC2CCC1C2)C(=O)Nc1ccc(N2CCOCC2)cc1 (configuration not stated)
  11	5.7	3129	-13	-1	11	-3
22. COC(=O)c1ccccc1C(=O)c1ccc2c(c1)NC(=O)CO2
  1	·	4356	-9	·	·	·
23. Cc1cc(N2CCN(C)CC2)nc2ccc(NC(=S)NCc3cccs3)cc12
  17	6.4	4498	-28	5	-4	5
24. CC(C)(C)c1cc(/C=N/NC(=O)Cc2nc3ccccc3[nH]2)cc(C(C)(C)C)c1O
  -3	·	2834	0	·	·	·
25. COC(=O)C(CC(C)C)Oc1ccc2c(C)cc(=O)oc2c1 (configuration not stated)
  -15	5.8	4228	-18	6	6	6
26. CCN(C(=O)CSc1n[nH]c(N)n1)C1CCCCC1
  ·	4.5	5759	11	5	3	-4
27. CC(C)(C)C(=O)CSc1ncccn1
  -3	-1.1	3550	-26	1	-8	-4
28. Cc1ccc(NC(=O)c2ccc(NS(=O)(=O)c3ccc4[nH]c(=O)[nH]c4c3)cc2)nc1
  -4	1.8	·	-22	3	-1	-5
29. CC(C)[C@H]1C(=O)O[C@H](C(C)C)C(=O)N(C)[C@@H](C(C)C)C(=O)O[C@H](C(C)C)C(=O)N(C)[C@@H](C(C)C)C(=O)O[C@H](C(C)C)C(=O)N1C
  5	-0.1	5589	-19	-13	·	·
30. COc1ccccc1NC1=NC(c2ccc(Cl)cc2)N=C(N)N1 (configuration not stated)
  7	3.3	10872	-29	-4	-7	-3

Further structures follow.
| entry | compound | BJeLR lethal | RN4220 kill | Bead autofluor | PrP 5UTR inh | Sa ugtP lethal | Mtb hypoxia inh | Mtb hypoxia inh growth |
| --- | --- | --- | --- | --- | --- | --- | --- | --- |
| 31 | CS(=O)(=O)c1cnc2c(S(=O)(=O)c3ccccc3)cnn2c1N | -3 | 4.4 | 4271 | -4 | 3 | 12 | 4 |
| 32 | NC(=O)C1CCN(C(=O)c2cc(Cl)c3c(c2)OCCO3)CC1 | · | 4.4 | 3434 | -19 | 9 | 5 | 2 |
| 33 | CCOC(=O)N1CCC(NC(=O)c2ccc3c(=O)n4c(nc3c2)CCCC4)CC1 | 11 | 3.2 | 3958 | -18 | 5 | 1 | 5 |
| 34 | COc1ccccc1OCCNC(=O)CN1C(=O)NC2(CCCC2)C1=O | · | 2.9 | · | -15 | 4 | 1 | 5 |
| 35 | OCCN(CCO)CC(O)CN1c2ccccc2Sc2ccccc21 (configuration not stated) | 3 | 0.6 | 4192 | · | -10 | -13 | 4 |
| 36 | COc1ccc(C2CC(=O)C=C(NC3CCCC3)C2)cc1 (configuration not stated) | -2 | 8.0 | 2408 | 1 | 4 | 2 | 5 |
| 37 | CC(=O)CCc1ccc(OCC(O)CNCCOc2ccc(C)cc2)cc1 (configuration not stated) | -2 | 3.2 | 5959 | -9 | 0 | 14 | 5 |
| 38 | Cc1n[nH]c(=O)c2c(NC(=O)CSc3nn(-c4ccccc4)c(=S)s3)oc(C)c12 | -4 | 1.4 | 6601 | 9 | 2 | -13 | 2 |
| 39 | CC1CN(/C(=N\S(=O)(=O)c2ccccc2)c2ccccc2)CC(C)O1 (configuration not stated) | -4 | · | 3538 | 1 | · | · | · |
| 40 | COc1ccccc1CNC(=O)C1CCCC1 | -10 | 2.1 | 6553 | -22 | 3 | 15 | 0 |
| 41 | CCOC(=O)C1=C(CC)Nc2ccccc2N=C1NC(=O)c1ccc(S(=O)(=O)N2CCOCC2)cc1 | -1 | 9.9 | 2529 | -6 | 6 | 5 | -2 |
| 42 | CN1C(=O)/C(=C/c2ccc(N3CCCCCC3)o2)C(=O)NC1=S | -1 | 2.6 | 9867 | -84 | 2 | 45* | 13* |
| 43 | Cc1ccc(S(=O)(=O)N(Cc2cc3ccc(C)cc3[nH]c2=O)c2ccccc2)cc1 | 4 | 4.5 | 4637 | -1 | 6 | 4 | 13 |
| 44 | CSc1ccccc1OCc1cc(C(=O)N2CCc3sccc3C2)no1 | -5 | -0.3 | 5506 | -2 | 8 | -5 | -5 |
| 45 | CCC1=NN(C(=O)C(=O)Nc2ccc(OC)cc2)C(O)(C(F)(F)F)C1 (configuration not stated) | -1 | 3.6 | 8304 | -5 | 8 | -11 | -25 |
| 46 | CC(C)CC(=O)Nc1ccc(C(=O)CN2CCN(c3ccc(O)cc3)CC2)cc1 | -9 | 0.6 | 5328 | -26 | 7 | 2 | 7 |

Entries from the list above with bromine (2):
| entry | compound | BJeLR lethal | RN4220 kill | Bead autofluor | PrP 5UTR inh | Sa ugtP lethal | Mtb hypoxia inh | Mtb hypoxia inh growth |
| --- | --- | --- | --- | --- | --- | --- | --- | --- |
| 4 | CCN1C(=O)C(NC(C)=O)c2cc(Br)ccc21 (configuration not stated) | -6 | 3.0 | 5459 | -15 | -5 | · | · |
| 15 | CCCn1nnc(NC(=O)/C=C/c2cc(Br)ccc2OC)n1 | -10 | -5.3 | 4264 | -20 | 5 | 19 | 12 |

Going on with the list:
| entry | compound | BJeLR lethal | RN4220 kill | Bead autofluor | PrP 5UTR inh | Sa ugtP lethal | Mtb hypoxia inh | Mtb hypoxia inh growth |
| --- | --- | --- | --- | --- | --- | --- | --- | --- |
| 47 | CCOc1ccc(C=NNc2cc(N3CCOCC3)nc(C)n2)c(O)c1 | · | -0.4 | · | · | 2 | 0 | 12 |
| 48 | CCC(C)(C)NC(=O)C(c1ccccc1Cl)N(Cc1cccnc1)C(=O)CCC(=O)Nc1cc(C)on1 (configuration not stated) | -6 | 3.4 | 5780 | -8 | 3 | 4 | 1 |
| 49 | [O-][N+](=Cc1ccccc1)c1ccccc1 | · | -4.8&1.0 | · | · | 1&-5 | 9&5 | 14&15 |
| 50 | CCc1c(C(=O)NN2C(=O)C3CCCCC3C2=O)csc1C (configuration not stated) | 5 | 4.0 | 2466 | -12 | -1 | 1 | -4 |
| 51 | CN1/C(=C\C(=O)C[n+]2cccc(Br)c2)C(C)(C)c2ccccc21 | 3 | 9.4 | 4449 | -18 | 0 | 10 | 6 |
| 52 | CCc1cc2c(N3CCN(C(=O)c4ccco4)CC3)ncnc2s1 | 1 | 10 | 4400 | -13 | 4 | -1 | 5 |
| 53 | O=c1c2ccc([N+](=O)[O-])cc2ncn1Cc1ccccc1C(F)(F)F | -8 | -0.1 | 3502 | -12 | 0 | -10 | 6 |
| 54 | O=C(CSC(=S)N1CCSCC1)c1ccccc1 | 4 | 5.2 | ? | -55 | 4 | 17 | 16 |
| 55 | COc1cc(/C=C/C2=NNC(=O)CC2)cc(OC)c1OC | 0 | 1.3 | 3923 | 26 | 11 | -4 | 13 |
| 56 | CCN(CC)CCCn1c(C)cc2c(c1=O)C(c1cc(OC)c(OC)cc1OC)C(C#N)=C(N)O2 (configuration not stated) | 7 | 4.2 | 2788 | -20 | 2 | 9 | 10 |
| 57 | O=C(Cc1ccccc1)NN=Cc1cc(Br)c(Br)o1 | · | 3.6 | · | · | -6 | -1 | -4 |
| 58 | C#CNC(=O)C1(CC=C)CCNCC1 | 3 | 6.0 | 3367 | -20 | 0 | 3 | 1 |
| 59 | NC(=O)N/N=C/c1cn(-c2ccccc2)nc1-c1ccccc1 | -2 | · | 4504 | -16 | · | · | · |
| 60 | CCc1nc2sc3c(c2c(=O)n1N)CCC3 | -2 | 1.8 | 3598 | 6 | 2 | · | · |
| 61 | Cc1ccccc1C(=O)Nc1ccccc1NC(=O)c1ccccc1Br | -8 | -0.6 | 3895 | -18 | 12 | 9 | 5 |
| 62 | CC(C)(C)N(NC(=O)OCc1ccccc1)C(=O)c1ccccc1 | -6 | 2.8 | 2131 | -23 | 1 | 11 | 7 |

Part of the list above in order of molecular weight, low to high.
| entry | compound | BJeLR lethal | RN4220 kill | Bead autofluor | PrP 5UTR inh | Sa ugtP lethal | Mtb hypoxia inh | Mtb hypoxia inh growth |
| --- | --- | --- | --- | --- | --- | --- | --- | --- |
| 60 | CCc1nc2sc3c(c2c(=O)n1N)CCC3 | -2 | 1.8 | 3598 | 6 | 2 | · | · |
| 55 | COc1cc(/C=C/C2=NNC(=O)CC2)cc(OC)c1OC | 0 | 1.3 | 3923 | 26 | 11 | -4 | 13 |
| 61 | Cc1ccccc1C(=O)Nc1ccccc1NC(=O)c1ccccc1Br | -8 | -0.6 | 3895 | -18 | 12 | 9 | 5 |

Other results.
| entry | compound | BJeLR lethal | RN4220 kill | Bead autofluor | PrP 5UTR inh | Sa ugtP lethal | Mtb hypoxia inh | Mtb hypoxia inh growth |
| --- | --- | --- | --- | --- | --- | --- | --- | --- |
| 63 | O=C(NCCc1cnc[nH]1)c1ccc(-c2ccccc2)cc1 | 6 | -0.9 | 3714 | -11 | 5 | 2 | -1 |
| 64 | COc1cc(NC(=S)N2CCN(C(=O)c3ccco3)CC2)c(OC)cc1Cl | 9 | 4.0 | 2479 | -1 | 11 | 2 | 0 |
| 65 | COCCCn1c(C(=O)Nc2ccc3c(c2)OCO3)cc2c(=O)n3ccccc3nc21 | 0 | 5.5 | 4402 | -5 | 4 | -6 | -10 |
| 66 | CCOC(=O)COn1c(=O)c(-c2cccs2)[n+]([O-])c2ccccc21 | 0 | 0.7 | 4210 | -18 | -3 | · | · |
| 67 | CCCn1cnc2c(SCc3ccc(Cl)cc3)nc(N)nc21 | · | 5.8 | 4201 | -23 | 4 | 7 | 11 |
| 68 | COc1cc(C(C)=O)ccc1OCC(=O)Nc1ccc2nc(C)sc2c1 | · | 3.4 | 8646 | -14 | -3 | 0 | 13 |

Compound activity as filed in PubChem BioAssay.
